Assay outcomes as filed in PubChem BioAssay.
RN4220 kill: growth inhibition of S. aureus RN4220, primary screen, OD600. 0.33% of 330,000 active. 16 h. inhibition, % (concentration not given with the values);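 active = z-score of -3 or lower and OD600 up to 0.18 on both plates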;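 also: plate controls were untreated cells for no effect and reference antibiotic for full effect; stock transfer was 100 nL into about 80 µL; one replicate is shown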
PrP 5UTR inh: inhibition of PrP 5' UTR reporter expression | cell-based PrP 5' UTR mRNA reporter, plate reader | inhibition, % (no concentration beside the values) | 0.35% of 340,000 active | AID 488862, 2010;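 active = every replicate at 50% or more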;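 also: 0 = median of the neutral control wells; tested in H4 reporter cells; numbers are from one replicate; inactives centre near -14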
Autofluor counter: counter-screen for toxin protease inhibitors: compound fluorescence; fluorescence intensity (test concentration not listed); 3.1% of 360,000 active; compound autofluorescence counterscreen, microsphere flow cytometry; hits give high values; AID 624483;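 active = at least 3 SD above the mean of all compounds, about 16000 in these data; inconclusive = too few beads counted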;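 also: 100 nL of 1 mM stock went into each well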
Mtb hypoxia inh: PubChem AID 1159583. M. tuberculosis hypoxia-regulated fluorescent reporter, fluorescence. fluorescence inhibition, % (no concentration beside the values). 0.1% of 300,000 active;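 active = 35 to 45% if threefold the growth effect, above 45% if 1.5-fold the growth effect; inactive = the rest, general growth blockers included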;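 also: wells of about 50 µL received 100 nL stock; 0% = vehicle wells and 100% = reference inhibitor wells; whole bacteria with a GFP reporter of the hypoxia response; strong numbers were not always called active; many hits fall short of the cut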
BJeLR lethal: MLPCN primary cell-based screen for lethality selective to Ras in HRASV12 cells | AID 1554, 2009 | BJeLR (HRASV12) viability, CellTiter-Glo ATP luminescence, 48 h; reference of the scale not given here | 0.17% of 300,000 active | inhibition, % (concentration not given with the values);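 active = replicate mean above 50%; inconclusive = above 50% but judged a plate artefact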;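 also: 50 nL library stock added to about 25 µL; numbers are from one replicate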
ugtP null kill: growth inhibition of ugtP-null S. aureus, primary screen, RN4220 ugtP deletion, OD600; 16 h; some inactives read as strong as hits; growth inhibition, % (no concentration beside the values); 0.54% of 330,000 active;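 active = z-score under -3 and OD600 up to 0.15 on both plates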;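 also: plate controls were untreated wells for no effect and antibiotic for full effect; wells of about 80 µL received 100 nL stock; the first replicate is given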
Mtb hypoxia inh growth: also measured in Mtb hypoxia inh; calls as there; growth inhibition, %; measured here: M. tuberculosis growth (absorbance);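 0% = vehicle and 100% = reference antibiotic; read after six days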
An asterisk follows results filed as active; ? = inconclusive; / = not tested or not shown.

SMILES | RN4220 kill | PrP 5UTR inh | Autofluor counter | Mtb hypoxia inh | Mtb hypoxia inh growth | BJeLR lethal | ugtP null kill
CCOC(=O)c1sc(Nc2ccccc2Cl)nc1C | 5.3 | / | 5168 | 11 | 1 | -2 | 1
Cc1cn(CCOc2ccc(Cl)cc2)c(=O)[nH]c1=O | 5.4 | 8 | 2918 | 9 | 1 | -6 | 8
COc1cc(CNCc2ccccn2)ccc1OCC(N)=O | 2.7 | -11 | 6786 | 10 | 6 | -18 | 9
COC(=O)C(O)(CC(=O)Nc1ccc(OC(F)(F)F)cc1)C(F)(F)F (stereo not given) | 2.6 | -29 | 10592 | 13 | 3 | 6 | 5
Cc1cc(Nc2ccccc2)n(-c2ccc(C(=O)O)cc2)n1 | 4.1 | 18 | 3897 | 6 | 1 | -5 | -3
CCc1ccc(N(CC(=O)NC2CCCC2)C(=O)CCC(=O)Nc2cc(C)on2)cc1 | / | -9 | 3633 | / | / | 4 | /
COC(=O)C1(C)CN(S(=O)(=O)c2ccc(C)cc2)c2cc(OC)ccc2C1=O (stereo not given) | 2.5 | -17 | 2085 | 3 | 2 | 12 | 4
CCCCS(=O)(=O)Nc1ccc(C)cn1 | 0.9 | -7 | 9262 | 2 | 0 | 3 | 2
COc1ccc(Cl)cc1NC(=O)CN(C)CC(=O)Nc1ccc(S(N)(=O)=O)cc1 | 3.5 | -9 | 4901 | 0 | 4 | -12 | -3
CCCCCc1ccc(-c2ccc(C(=O)O)cc2)nc1 | 6.4 | 6 | 9020 | -6 | -7 | 8 | -14
CCN(CC)CCNC(=O)c1ccc(NC(=O)CC(NC(=O)c2ccccc2Cl)c2ccccc2)cc1 (stereo not given) | 3.4 | -2 | 5864 | 4 | 4 | 2 | 7
CC(C)C[C@@H](NC(=O)C1CCC(CNC(=O)[C@H](Cc2ccccc2)NC(=O)OC(C)(C)C)CC1)C(=O)O (stereo not given in full) | -0.1 | -3 | 3053 | 9 | 10 | 21 | 7
CCSc1nnc(NC(=O)CSc2ncccn2)s1 | 9.0 | -8 | 3468 | 6 | 5 | 7 | -1
CC1CCCC(NC(=O)CSc2nnnn2C)C1C (stereo not given) | 3.2 | -5 | 9565 | 5 | 8 | 4 | 2
Cc1cc(C)c(S(=O)(=O)N2CCOC2CNC(=O)C(=O)NCCCN2CCCC2=O)c(C)c1 (stereo not given) | -0.3 | -8 | 5891 | -10 | 5 | -7 | -3
Cc1nc2ccc(NC(=O)Cc3ccccc3F)cc2s1 | 6.5 | -64 | 3380 | 2 | 5 | -7 | 5
COc1ccc(NC(=O)c2cccnc2N2CCCC2)cc1 | -2.8 | / | 10228 | -6 | -3 | / | -2
O=C(COc1ccccc1N1C(=O)c2ccccc2C1=O)c1ccc(Cl)cc1 | 15 | -13 | 3557 | 5 | -2 | -7 | 10
CC(=O)N1c2ccc(S(=O)(=O)N3CCC(C(=O)N4CCN(c5cc(Cl)ccc5C)CC4)CC3)cc2CC1C (stereo not given) | -8.3 | -1 | 4825 | 3 | 2 | -6 | -3
CSCC[C@H](NC(=O)COc1cc2c(c3oc(=O)c(C)c(C)c13)CCC(C)(C)O2)C(=O)O | 2.2 | -24 | 3322 | 0 | 7 | -4 | 22
COCCCNC(=S)NNC(=O)c1ccoc1C | 3.6 | -5 | 10463 | 3 | 2 | 8 | 8
CN(C)c1cc2c(c(N(C)C)c1)C(=O)c1ccccc1C2=O | 6.6 | -22 | 4014 | 4 | 6 | -9 | -2
CC(C(=O)N1CCOCC1)N1c2cccc3cccc(c23)S1(=O)=O (stereo not given) | 4.0 | -4 | 9461 | 7 | 11 | 0 | 4
Brc1ccc(-c2cn3c(n2)CCc2ccc4cccnc4c2-3)cc1 | 2.9 | -2 | 3983 | -5 | 3 | -4 | -13
CN(C(=O)c1cccs1)C1(C)CCS(=O)(=O)C1 (stereo not given) | 1.3 | -30 | 4803 | 9 | -6 | 7 | 7
CC(=O)N1N=C2c3ccccc3CCC2C1c1cccs1 (stereo not given) | 7.0 | / | 6489 | 7 | 2 | -15 | 0
C/C(CC(=O)Nc1ccc(Cl)c(C(F)(F)F)c1)=N\NC(=O)c1ccccc1O | / | -23 | 1958 | / | / | 0 | /
CCN1CCN(CCCNC(=O)CNC(=O)c2nn(-c3ccc(OC)cc3)c(=O)c3ccccc23)CC1 | -0.2 | -7 | 4651 | 9 | -4 | 14 | 2
CCn1nc(C(C)C(=O)O)c2ccccc2c1=O (stereo not given) | 0.3 | -80 | 3358 | 11 | -1 | 11 | 8
O=C(Nn1cnnc1)c1ccc(F)cc1 | 3.1 | -16 | 3920 | -1 | -1 | -1 | 11
Cc1noc(C)c1NC(=O)Nc1ccc2c(c1)C(=O)N(C(C)CO)CC(C)C(CN(C)C(=O)Nc1ccc3c(c1)OCO3)O2 (stereo not given) | 4.4 | / | / | 8 | 12 | / | -1
COc1ccccc1NS(=O)(=O)c1cccc(C(=O)NN=Cc2ccc(N3CCOCC3)cc2)c1 | 7.2 | / | / | 5 | 2 | / | 8
COc1ccccc1NC(=O)COc1cccc2c1CCNC2=O | 3.7 | -19 | 5280 | 1 | 4 | 3 | 5
O=C(COC(=O)CNC(=O)c1ccc(Cl)cc1)Nc1ncc(C(F)(F)F)cc1Cl | 2.4 | 3 | 2530 | 8 | 11 | 4 | -2
O=C(CNc1ccc2ccccc2c1)NN=Cc1ccc([N+](=O)[O-])o1 | 14 | / | / | 4 | 4 | / | 45
Cc1nonc1OCC(C)(COc1nonc1C)NC(=O)c1ccccc1 | 1.5 | -11 | 21066* | 2 | 0 | 0 | -7
COCCN(C(=O)COC(=O)CCc1ccccc1OC)c1c(N)n(Cc2ccccc2)c(=O)[nH]c1=O | 1.2 | 1 | ? | 1 | 6 | 1 | -1
CC(OC(=O)CCC(=O)c1cccs1)C(=O)Nc1ccc(Cl)cn1 (stereo not given) | 1.0 | -15 | 2203 | -3 | -1 | 6 | 2
Cn1c(CCC(=O)Nc2ccc(F)cc2)nc2cc(S(=O)(=O)N3CCOCC3)ccc21 | 1.7 | 0 | 5544 | -1 | 6 | 11 | 8
Cc1ccc(Nc2ncccc2C(N)=O)cc1 | 3.5 | -50 | 2075 | 15 | 2 | 0 | 9
COc1ccc(-n2ncc(C(=O)NC3CC3)c2C2CCN(C(=O)OC(C)(C)C)CC2)cc1 | 7.6 | -12 | 6195 | -1 | 8 | 9 | 8
CC(NC(=O)C1CCN(C(=O)[C@@H]2Cc3ccccc3CN2)CC1)c1ccccc1 (stereo not given in full) | 1.5 | 3 | 4186 | 7 | 0 | -1 | 7
COc1ccc(NS(=O)(=O)c2cccc(C(=O)NNC(=O)c3ccc(C)o3)c2)cc1 | 3.3 | -16 | / | 4 | 1 | / | 12
CCOc1ncccc1C(=O)OCC(=O)Nc1ccc(C)c(S(=O)(=O)N2CCOCC2)c1 | 1.8 | -3 | 2463 | -1 | 3 | 6 | 0
O=C(O)CCC(=NNC(=O)CNC(=O)Cc1ccccc1)c1ccccc1 | -1.9 | / | / | 0 | -11 | / | -3
O=C(N/N=C/c1ccc(Cl)cc1Cl)c1ccc2nc[nH]c2c1 | / | -20 | 5418 | / | / | 8 | /
CC(C)NC(=O)CSc1nnc(COc2ccccc2Cl)o1 | 2.8 | -10 | 4475 | / | / | 3 | 9
CC(Oc1cccc(Cl)c1)C(=O)N1CCCN(C)CC1 (stereo not given) | 5.3 | -26 | 4887 | 1 | -5 | 5 | 7
C#CCNC(=O)C1=CC(C2CC2)C(CCCO)C(OCC)O1 (stereo not given) | 7.4 | / | / | 7 | -6 | / | -1
COCCN(C(=O)COC(=O)c1cc(C)oc1C)c1c(N)n(Cc2ccccc2)c(=O)[nH]c1=O | 0.4 | -8 | 5956 | 6 | -1 | 3 | 1
CCc1nc2nc(C)c(NS(=O)(=O)c3cccs3)c(=O)n2[nH]1 | 0.5 | -20 | 3818 | -3 | 10 | 0 | 2
O=C(Cn1ncc2ccccc21)N1CCN(c2cccc(C(F)(F)F)c2)CC1 | -3.8 | -20 | 7345 | -5 | -11 | -5 | 3
O=S(=O)(/N=S1\CC=CCN1S(=O)(=O)c1ccccc1)c1ccccc1 (stereo not given) | 5.1 | -12 | 3429 | 9 | 6 | / | 11
O=C(CC(c1ccccc1)(c1ccccc1)c1ccccc1)N[C@@H](Cc1ccccc1)C(=O)O | / | 5 | 3781 | / | / | -3 | /
Cc1cc(C)cc(N(C(C)C(=O)N2CCOCC2)S(C)(=O)=O)c1 (stereo not given) | 2.7 | -24 | 4843 | 8 | 1 | 6 | 5
O=C(N/N=C\c1ccccn1)C1c2ccccc2Oc2ccccc21 | / | -13 | ? | / | / | 2 | /
COc1ccc(NC(=O)c2[nH]c(C)c(C(C)=O)c2C)cc1S(=O)(=O)N1CCOCC1 | 6.6 | -6 | 2717 | 1 | -4 | 0 | 3
CCOC(=O)c1ccc(-c2c(-c3ccccc3OC)oc3ccccc23)cc1F | -5.5 | 7 | 4028 | 10 | 8 | / | 92*
Cc1ccccc1NC(=O)CSc1nc2ccccc2o1 | 1.6 | -31 | 11014 | 6 | 13 | 13 | 3
CCOC(=O)C1=C(COC(=O)COc2ccccc2C=O)NC(=O)NC1C (stereo not given) | 2.3 | -16 | 3817 | 9 | 9 | / | 4
(list continues)
SMILES | RN4220 kill | PrP 5UTR inh | Autofluor counter | Mtb hypoxia inh | Mtb hypoxia inh growth | BJeLR lethal | ugtP null kill
O=C(CSCc1ccccc1Br)NN=Cc1ccc(OCC(=O)N2CCCCC2)cc1 | 2.1 | / | / | 14 | 8 | / | -7
Cc1nc2ccccc2cc1C(=O)N/N=C/c1cccs1 | / | -6 | 2060 | / | / | -3 | /
CCN(CC)C(=O)COc1ccc2c3c(c(=O)oc2c1C)CCCC3 | 4.2 | -19 | 4105 | 23 | 20 | -6 | 15
CC(=NCC1CCNCC1)C1=C(O)CC(C)(C)CC1=O | -15 | -3 | 3444 | 20 | 10 | 6 | -8
NS(=O)(=O)c1ccc(Nc2ccc([N+](=O)[O-])c3nonc23)cc1 | 8.0 | -17 | 4384 | 20 | 9 | 17 | 5
COc1ccc(/C=C(/NC(=O)c2ccccc2)C(=O)NN=Cc2sccc2C)cc1 | 2.6 | / | / | 3 | 0 | / | 3
CC(NC(=O)CSc1ccccc1C(=O)O)C1CC2CCC1C2 (stereo not given) | 3.3 | -33 | 4500 | -2 | -5 | 2 | 1
COc1cccc(/C=C2\SC(=S)N(CCC(=O)NCCc3ccc(O)cc3)C2=O)c1 | -3.3 | -7 | 5282 | 1 | 4 | 2 | -10
O=C(CSc1nnc(-c2ccc(F)cc2)c2ccccc12)Nc1ccccc1Cl | 6.6 | -13 | 6849 | 6 | 4 | -10 | -26
O=C(Cc1ccc([N+](=O)[O-])cc1)NNC(=O)c1cccs1 | 3.5 | -10 | 5727 | -8 | 4 | 4 | 1
O=C(Cn1nc(Cc2ccncc2)c2ccccc2c1=O)N1CCc2ccccc2C1 | 2.7 | -6 | 6106 | / | / | / | 6
COc1ccccc1/C=C(/C#N)C(=O)O | / | -8 | 3107 | / | / | -4 | /
Cc1c(C(=O)N(C)c2ccc(Cl)cc2)cnn1-c1ccccc1 | -0.2 | -28 | 3983 | -7 | 4 | -6 | -2
